High-throughput results as filed in PubChem.
2A firefly: lowers the firefly signal of an FMDV 2A StopGo reporter; HEK cells with a luciferase reporter of 2A StopGo recoding; Potency, µM (highest dose often 57.5 µM), for the others: at the top dose signal change, negative = less light; 0.23% of 120,000 active; AID 1745856; active = well fitted falling curve with a large enough effect; inconclusive = small, poorly fitted or top-dose-only effect; inactive = no such curve, though single readings can be large or run the other way; also: nearly all actives have a fitted effect of over 60% in size; overnight with compound
2A Renilla: lowers the Renilla signal of an FMDV 2A StopGo reporter; HEK cells with a luciferase reporter of 2A StopGo recoding; AID 1745857; Potency, µM (titrated, usually from 57.5 µM), inactives show top-dose signal change, negative = less light; 0.32% of 120,000 active; active means well fitted falling curve with a large enough effect; inconclusive means small, poorly fitted or top-dose-only effect; inactive means no such curve, though single readings can be large or run the other way; also: nearly all actives have a fitted effect of over 55% in size; overnight with compound
* hit, by the source's call; & = joins results of further samples; [ ] = dose if it differs, or a comment. % is scaled to controls: 0 for no effect and ±100 for the full control effect; potency is read from the fitted curve at half-maximal effect. Only part of the results is shown; the hit share may differ from the screen's.

COc1ccc(Br)cc1CNC(=O)C1CCCCN1S(=O)(=O)c1ccc(F)cc1 (stereo not given) was read as 2A firefly -13.7% and 2A Renilla -3.0%.
For CCOC(=O)c1ccc(-c2ccc(/C=C(\C#N)C(=O)Nc3cccc(C)c3)o2)cc1 the results were 2A firefly 18.4% and 2A Renilla -1.7%.
CCCc1cc(=O)oc2c(C)c(OC(C)C(=O)NCc3ccncc3)ccc12 (stereo not given) was read as 2A firefly -2.2% and 2A Renilla 12.6%.
COc1ccc(N(C)C(=O)c2cn(C)c(=O)c3cc(OC)c(OC)cc23)cc1 was read as 2A firefly 5.1% and 2A Renilla 21.4%.
`Cc1nn(C)c(C)c1NC(=O)c1cc2sccc2n1Cc1ccccc1` gave 2A firefly -3.2% and 2A Renilla -9.0%.
O=S(=O)(c1ccc2nc(N3CCN(c4ccc(F)cc4)CC3)ccc2c1)N1CCCC1 was read as 2A firefly -9.9% and 2A Renilla -10.9%.
`COc1cccc2cc(-c3nc(-c4ccc(Cl)cc4)no3)c(=O)oc12` gave 2A firefly 4.9% and 2A Renilla -12.9%.
Screening O=C(N/N=C/c1ccccc1O)c1ccncc1 returned 2A firefly -20.5% and 2A Renilla inconclusive.
`C=CCNc1nc(-c2cccnc2)nc2ccccc12` gave 2A firefly 17.0% and 2A Renilla 9.8%.
`COc1ccc(-c2nnc(SCc3csc(Nc4ccc(C)cc4)n3)o2)cc1` gave 2A firefly 115.5%[activator] and 2A Renilla 57.9%[activator].
COc1cc2c(cc1OC)C1=CC3(C(=O)Nc4c(C)cccc43)C(C#N)=C(N)N1CC2 (stereo not given) was read as 2A firefly -12.6% and 2A Renilla -5.7%.
`O=C(COC(=O)c1cc(=O)c2ccccc2o1)c1ccc(Cl)cc1` gave 2A firefly 4.8% and 2A Renilla -0.9%.
O=C(NCc1ccncc1)c1cc(-c2ccccc2Cl)nc2ccccc12 was read as 2A firefly 35.6% and 2A Renilla 49.0%[activator].
CC(C#N)OC(=O)c1ccccc1C(=O)c1cccs1 (stereo not given) was read as 2A firefly 3.8% and 2A Renilla 5.7%.
For CC(=O)N1CCN(S(=O)(=O)c2ccc(C(=O)NCc3ccc(OCC(F)(F)F)cc3)cc2)CC1 the results were 2A firefly -9.5% and 2A Renilla -8.9%.
`CCOc1ccc(N(Cc2nnc3n2CCCCC3)C(=O)Nc2ccccc2C)cc1` gave 2A firefly -10.2% and 2A Renilla 42.9%[activator].
For CCCCCc1ccc(C(C)=O)cc1 the results were 2A firefly -4.7% and 2A Renilla 2.3%.
Nc1ccc(-c2cn[nH]c2)cc1 was read as 2A firefly 46.3%[activator] and 2A Renilla 15.4%.
`CC1CCN(S(=O)(=O)c2ccc3nc(N4CCN(c5ccccc5F)CC4)ccc3c2)CC1` gave 2A firefly 0.4% and 2A Renilla -4.8%.
Screening Cc1ccc(C2CC(=O)NC3=C2C(=O)CC(C)(C)C3)cc1 (stereo not given) returned 2A firefly -0.5% and 2A Renilla -5.5%.
For COc1ccc(S(=O)(=O)N(CC(=O)NCCSc2ccccc2)c2ccc(Cl)cc2)cc1 the results were 2A firefly 9.9% and 2A Renilla 15.9%.
`Cc1ccc(Nc2ncnc(N)c2[N+](=O)[O-])cc1Cl` gave 2A firefly 24.9% and 2A Renilla -12.7%.
`CCCn1nc(C(=O)Nc2ccc(OCCN(CC)CC)cc2)c2ccccc2c1=O` gave 2A firefly 0.5% and 2A Renilla 22.6%.
Screening Cc1ccc(-c2nc(CSCC(=O)N3CCOCC3)c(C)o2)cc1 returned 2A firefly 24.5% and 2A Renilla inconclusive.
COC(=O)C1=C(C(=O)OC)SC2(S1)C(c1ccccc1)=CSC(C(=O)OC)=C2C(=O)OC was read as 2A firefly 11.5% and 2A Renilla 0.0%.
For COc1ccccc1-c1cc(NC(=O)COc2ccc(C)c(C)c2)n(-c2ccccc2)n1 the results were 2A firefly 52.7%[activator] and 2A Renilla -4.8%.
`O=C(CSc1cn(CC(=O)N2CCOCC2)c2ccccc12)Nc1ccc(Br)cc1` gave 2A firefly inconclusive and 2A Renilla inconclusive.
Cc1cccc(CSCC(=O)N(C)C)c1 was read as 2A firefly 89.9%[activator] and 2A Renilla 11.2%.
For NC(=O)CCNc1ccccc1Cl the results were 2A firefly 6.1% and 2A Renilla -9.6%[1.06 µM].
`c1coc(C(CNC2CCCC2)N2CCCC2)c1` (stereo not given) gave 2A firefly -2.6% and 2A Renilla -2.2%.
`CN(C)CC(C)(C)CNC(=O)c1cc(=O)c2ccccc2o1` gave 2A firefly -3.0% and 2A Renilla -9.5%.
COc1ccc(/C=N/OC(=O)COc2cccc(C)c2C)cc1COc1ccc(F)cc1 was read as 2A firefly 4.8% and 2A Renilla 5.3%.
Screening CCc1nc2ccc(C(=O)NCc3cccs3)cc2nc1CC returned 2A firefly 0.0% and 2A Renilla 87.3%[activator].
For CC(=O)Oc1ccc([C@H]2C(C#N)=C(N)OC3=C2C(=O)CC(C)(C)C3)cc1 the results were 2A firefly 7.3% and 2A Renilla -0.8%.
For Cc1ccc(NC(=O)CN2CCCN(Cc3cc(C)ccc3C)S2(=O)=O)c(Cl)c1 the results were 2A firefly -10.7% and 2A Renilla 4.7%.
For CCC(C)NC(=O)C1CCC(CNS(=O)(=O)c2cccc3nsnc23)CC1 (stereo not given) the results were 2A firefly -12.1% and 2A Renilla -9.7%.
For COCCNC(=O)c1nn(-c2ccc(Cl)cc2)nc1CO the results were 2A firefly 19.1% and 2A Renilla -7.4%.
CCc1nnc2c3ccccc3nc(N3CCN(c4cc(C)ccc4C)CC3)n12 was read as 2A firefly -12.8% and 2A Renilla 13.3%.
For Cc1ccn2c(Nc3c(C)cccc3C)c(-c3ccc(Cl)s3)nc2c1 the results were 2A firefly -6.3% and 2A Renilla -9.1%.
COc1ccc(C2NC(=O)N(C)C3=C2C(=O)N(c2ccc(Br)cc2)C3)cc1 (stereo not given) was read as 2A firefly 3.8% and 2A Renilla 6.3%.
Screening CCOc1c(Br)cc(C2C=C(C(=O)O)Nc3ncnn32)cc1OC (stereo not given) returned 2A firefly -0.9%&-16.5% and 2A Renilla -3.1%&-12.4%.
Screening COc1cc(-c2nnc(SCC(=O)NC3CCCc4ccccc43)o2)cc(OC)c1OC (stereo not given) returned 2A firefly 19.5% and 2A Renilla 26.3%.
For O=C(Nc1ccc(C(=O)N(Cc2ccccc2)C2CC2)cc1)c1cccs1 the results were 2A firefly inconclusive and 2A Renilla inconclusive.
For CCn1c(SCC(=O)NC2CCCC2)nc2c(c1=O)SCC2 the results were 2A firefly 60.8%[activator] and 2A Renilla 43.8%[activator].
Screening CN1CCN(Cc2cc(=O)oc3cc(-c4ccccc4)c(O)cc23)CC1 returned 2A firefly 10.0% and 2A Renilla -10.7%.
COC(=O)c1ccc(Oc2coc3cc(OCc4ccc(C)cc4)ccc3c2=O)cc1 was read as 2A firefly -8.6% and 2A Renilla -11.6%.
Screening CCOC(=O)c1ccc(NC(=O)c2cnc(N3CCCC3)nc2C)cc1 returned 2A firefly 3.8% and 2A Renilla -6.9%.
Screening CC(C)(CO)Nc1nc(-c2ccccc2)c2cc(Br)ccc2n1 returned 2A firefly -13.8% and 2A Renilla -15.2%.

Quoted at random: five records from the list
Screening CN1CCN(Cc2cc(=O)oc3cc(-c4ccccc4)c(O)cc23)CC1 returned 2A firefly 10.0% and 2A Renilla -10.7%.
For CCn1c(SCC(=O)NC2CCCC2)nc2c(c1=O)SCC2 the results were 2A firefly 60.8%[activator] and 2A Renilla 43.8%[activator].
COc1ccc(C2NC(=O)N(C)C3=C2C(=O)N(c2ccc(Br)cc2)C3)cc1 (stereo not given) was read as 2A firefly 3.8% and 2A Renilla 6.3%.
For COCCNC(=O)c1nn(-c2ccc(Cl)cc2)nc1CO the results were 2A firefly 19.1% and 2A Renilla -7.4%.
For Cc1ccn2c(Nc3c(C)cccc3C)c(-c3ccc(Cl)s3)nc2c1 the results were 2A firefly -6.3% and 2A Renilla -9.1%.

Additional records:
Screening CC(Sc1ccc(C(F)(F)F)cn1)C(=O)NC(C)(C#N)C(C)C (stereo not given) returned 2A firefly -5.9% and 2A Renilla 8.7%[1.06 µM].
Screening CN1CCN(Cc2c(O)ccc3cc(-c4ccc(Cl)cc4)c(=O)oc23)CC1 returned 2A firefly 13.3% and 2A Renilla -11.1%.
Screening CCS(=O)(=O)N1CCc2cc(C(=O)Nc3c(C)cc(C)cc3C)ccc21 returned 2A firefly -9.9% and 2A Renilla 5.3%.
`O=C(CCc1c[nH]c2ccccc12)N1CCCC1CN1CCCC1` (stereo not given) gave 2A firefly -14.3% and 2A Renilla -12.4%.
CCc1ccc(NC(=O)c2ccc(F)c(S(=O)(=O)N3CCc4ccccc4C3)c2)cc1 was read as 2A firefly inconclusive and 2A Renilla inconclusive.
For COc1ccc(S(=O)(=O)[C@H]2CS(=O)(=O)C[C@@H]2N2CCN(c3ccc(F)cc3)CC2)cc1 the results were 2A firefly 4.5% and 2A Renilla -4.9%.
Screening CC(C)CCNC(=O)C1CCN(c2nc3ccc(Cl)cc3[nH]2)CC1 returned 2A firefly -11.0% and 2A Renilla -15.6%.
Screening Cc1cccc(Nc2nc(C(=O)N3CCC(C)CC3)cs2)c1 returned 2A firefly 25.1µM* and 2A Renilla 12.6µM*.
`Cc1cc(C)n(CCc2nc3c4ccccc4nc(N4CCN(c5ccc(F)cc5)CC4)n3n2)n1` gave 2A firefly -20.0% and 2A Renilla -4.2%.
OCCCSc1nnc(-c2c[nH]c3ccccc23)n1C1CC1 was read as 2A firefly 0.0% and 2A Renilla 12.1%.
Cc1ccc(OC(=O)c2ccc(C)c(Br)c2)c(C)c1 was read as 2A firefly 0.0% and 2A Renilla -4.3%[1.06 µM].
`CCc1ccccc1NC(=O)COCc1cc(-c2ccco2)on1` gave 2A firefly -8.8% and 2A Renilla -1.1%.

In the list so far, three contain a furan ring, fused or not:
For CCOC(=O)c1ccc(-c2ccc(/C=C(\C#N)C(=O)Nc3cccc(C)c3)o2)cc1 the results were 2A firefly 18.4% and 2A Renilla -1.7%.
`c1coc(C(CNC2CCCC2)N2CCCC2)c1` (stereo not given) gave 2A firefly -2.6% and 2A Renilla -2.2%.
`CCc1ccccc1NC(=O)COCc1cc(-c2ccco2)on1` gave 2A firefly -8.8% and 2A Renilla -1.1%.

Following part.
For COc1ccccc1-c1cc(=O)c2cc(NS(=O)(=O)c3ccc(F)cc3)ccc2o1 the results were 2A firefly 22.5% and 2A Renilla 119.7%[activator].
`CCCCN(CC)C(=O)c1c[nH]c2ccc(S(=O)(=O)N(C)c3ccc(Cl)cc3)cc2c1=O` gave 2A firefly -8.9% and 2A Renilla 48.2%[activator].
CCOC(=O)Cc1csc(=S)n1-c1ccc(OC)cc1 was read as 2A firefly -2.1% and 2A Renilla 7.5%.
For c1ccc2sc(SN3CCOCC3)nc2c1 the results were 2A firefly inconclusive and 2A Renilla inconclusive.
`Cc1cc2nc(/C(C#N)=C/c3coc4ccccc4c3=O)[nH]c2cc1C` gave 2A firefly inconclusive and 2A Renilla inconclusive.
COc1cccc(OCCCn2c(-c3ccc(Cl)cc3)nc3ccccc3c2=O)c1 was read as 2A firefly 9.7% and 2A Renilla 2.5%.
O=C(CCCN1C(=O)C(c2ccccc2)Oc2cccnc21)NCCc1ccccc1 (stereo not given) was read as 2A firefly 5.8% and 2A Renilla 0.9%.
CC(Sc1nc(Cl)nc2nc[nH]c12)C(=O)NCCc1c[nH]c2ccc(Cl)cc12 (stereo not given) was read as 2A firefly -6.4% and 2A Renilla 12.6%.
For Cc1cccc(NC(=O)CN(C)C(=O)C2CCN(c3ccc(C#N)cn3)CC2)c1C the results were 2A firefly -8.8% and 2A Renilla -16.1%.
For N#Cc1ccc(C(=O)NC(c2ccccc2)c2cccs2)cc1 (stereo not given) the results were 2A firefly -8.2% and 2A Renilla 4.0%.
COc1ccc(CNC(=O)c2scnc2C)cc1OC was read as 2A firefly 6.7% and 2A Renilla -10.9%.
Clc1cccc(-n2ncc3c(N4CCN(Cc5ccccc5)CC4)ncnc32)c1 was read as 2A firefly -14.1% and 2A Renilla -16.5%.
`CCCc1oc2ccc(NS(=O)(=O)c3ccc(OCC)cc3)cc2c1C(=O)OCC` gave 2A firefly -6.9% and 2A Renilla -7.0%.
`Cc1ccc2c(=O)cc(C(=O)NCC(c3ccco3)N3CCOCC3)oc2c1` (stereo not given) gave 2A firefly -4.5% and 2A Renilla -8.6%.
Screening CN(Cc1ccco1)C(=O)c1n[nH]c(=O)c2ccccc12 returned 2A firefly -7.6% and 2A Renilla -9.9%.
`CCCCN(C)CCCNC(=O)Cn1ncc2c3ccccc3n(Cc3cc(C)ccc3C)c2c1=O` gave 2A firefly -21.8% and 2A Renilla -10.1%.
CC(CCc1ccccc1)NC(=O)NCc1ccncc1 (stereo not given) was read as 2A firefly -8.5% and 2A Renilla -3.9%.
`CC(C)c1ccc2occ(CC(=O)Nc3ccccc3Cl)c2c1` gave 2A firefly -8.5% and 2A Renilla 2.3%.
For COc1ccc2oc(-c3ccc(NC(=O)c4cccc(F)c4)cc3)nc2c1 the results were 2A firefly 27.5% and 2A Renilla -9.0%.
Screening CCOc1ccc(-n2cc(-c3ccccc3)c3c(NCC(OC)OC)ncnc32)cc1 returned 2A firefly -11.3% and 2A Renilla 5.0%.
For CCc1nc2ccc(C(=O)Nc3cc(C)ccn3)cc2nc1CC the results were 2A firefly 181.9%[activator] and 2A Renilla 2.9%.
CCCc1cc(C(=O)Nc2ccccc2SC)cs1 was read as 2A firefly 196.8%[activator] and 2A Renilla 12.4%.
Screening CCS(=O)(=O)Nc1cccc(C2=NN(C(C)=O)C(c3ccccc3C)C2)c1 (stereo not given) returned 2A firefly 6.6% and 2A Renilla 7.8%.
COc1ccc2oc(-c3cccc(NC(=O)CC45CC6CC(CC(C6)C4)C5)c3)nc2c1 was read as 2A firefly 90.2%[activator] and 2A Renilla 64.5%[activator].
